# Bioassay records deposited in PubChem BioAssay by National Center for Advancing Translational Sciences (NCATS).
# Cruzain inh noDet – qHTS Assay for Promiscuous and Specific Inhibitors of Cruzain (without detergent); Cruzipain (Trypanosoma cruzi), P25779; purified cruzain, Z-FR-AMC fluorescence, no detergent; Potency, µM, for inactives: max response, negative = inhibition, hits mostly inhibitors; actives 2.3% (n = 200,000); active = well fitted curve in the direction sought with a large enough effect; inconclusive = small, poorly fitted or top-dose-only effect, or another doubt; inactive = no such curve, though single readings can be large; an effect the other way counts as inactive or inconclusive;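 also: plate controls were enzyme without inhibitor for no effect and buffer without enzyme for full effect; nearly all actives have a fitted effect of over 40% in size; top concentration of the series not given in the record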
# Target sequence (P25779 123-467 limits assumed): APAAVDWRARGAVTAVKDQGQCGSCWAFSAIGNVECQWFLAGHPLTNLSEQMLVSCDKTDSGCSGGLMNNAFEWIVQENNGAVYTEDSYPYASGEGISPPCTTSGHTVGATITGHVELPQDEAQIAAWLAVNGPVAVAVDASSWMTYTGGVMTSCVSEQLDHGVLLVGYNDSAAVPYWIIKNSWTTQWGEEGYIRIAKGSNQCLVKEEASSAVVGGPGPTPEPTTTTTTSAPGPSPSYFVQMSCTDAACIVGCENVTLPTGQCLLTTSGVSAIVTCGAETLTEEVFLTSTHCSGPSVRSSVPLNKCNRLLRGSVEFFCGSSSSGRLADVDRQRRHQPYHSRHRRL
#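 Detergent-free condition (0.00005% Triton X-100) in acetate buffer pH 5.5 with DTT. 1.5 nM enzyme and compound were pre-mixed 15 min, then 2 uM Z-FR-AMC substrate added; reaction progress from fluorescence change between first and third reads (60 s).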
# MARV entry inh – qHTS for inhibitors of binding or entry into cells for Marburg Virus | Marburg virus pseudotyped entry inhibition, cell reporter; control for the full effect not named in the record; about a third of the inactives were read at about 46 µM | Potency, µM (series often up to 37.8 µM), for inactives: top-dose activity change, negative = inhibition, most hits filed as inhibitors | actives 1.8% (n = 300,000) | AID 540276, 2011; active = well fitted inhibition curve with a large enough effect; inconclusive = small, poorly fitted or top-dose-only effect, or effect the other way; inactive = flat fitted curve, though single readings scatter; tested in HEK293 cells; about a fifth of its hits are not listed in these tables; also: % is scaled to controls: 0 for no effect and ±100 for the full control effect; luciferase read-out
# NS1 inh – qHTS Assay for Inhibitors of Influenza NS1 Protein Function | S. cerevisiae slowed by influenza A NS1, growth recovery by OD600 | actives 0.4% (n = 270,000) | Potency, µM (series often up to 46.1 µM), for the others: at the highest dose activity, positive = more growth; also: actives are rising curves; nearly all actives have a fitted effect of over 50% in size
#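 Recovery from NS1-induced slow growth read by OD600 in budding yeast switched to galactose assay medium (pH 6.0, -URA) at 1:100 dilution. Compound 23 nl per well; the matching strain lacking NS1 serves as control.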
# 2A StopGo – High Throughput Screening for Foot and Mouth Disease Virus Antivirals. human cells with a luciferase reporter of 2A StopGo recoding; control for the full effect not named in the record. Potency, µM (titrated, usually from 57.9 µM), without a hit: at the top dose signal change, negative = less light. actives 1.2% (n = 410,000); active = well fitted falling curve with a large enough effect; inconclusive = small, poorly fitted or top-dose-only effect; inactive = no such curve, though single readings can be large or run the other way; tested in HEK293T cells; also: % is scaled to controls: 0 for no effect and ±100 for the full control effect; nearly all actives have a fitted effect of over 45% in size; luciferase light after 4 h
# Lassa entry inh – qHTS for Inhibitors of binding or entry into cells for Lassa Virus. Lassa virus pseudotype entry inhibition, cell reporter; control for the full effect not named in the record. Potency, µM (series often up to 37.9 µM), inactives show top-dose activity change, negative = inhibition, most hits filed as inhibitors. actives 1.2% (n = 300,000). AID 540256, 2011; active means well fitted inhibition curve with a large enough effect; inconclusive means small, poorly fitted or top-dose-only effect, or effect the other way; inactive means flat fitted curve, though single readings scatter; tested in HEK293 cells; also: % is scaled to controls: 0 for no effect and ±100 for the full control effect; nearly all actives have a fitted effect of over 50% in size; luciferase read-out
# Cruzain inh Det – qHTS Assay for Promiscuous and Specific Inhibitors of Cruzain (with detergent). Cruzipain (Trypanosoma cruzi), P25779. purified cruzain, Z-FR-AMC fluorescence, 0.01% Triton. Potency, µM, without a hit: max response, negative = inhibition, usual class: inhibitors. actives 0.43% (n = 200,000). AID 1478, 2009; active = well fitted curve in the direction sought with a large enough effect; inconclusive = small, poorly fitted or top-dose-only effect, or another doubt; inactive = no such curve, though single readings can be large; an effect the other way counts as inactive or inconclusive;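 also: plate controls were neutral wells for no effect and buffer without enzyme for full effect; nearly all actives have a fitted effect of over 40% in size; top concentration of the series not given in the record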
#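 Detergent-containing run (0.01% Triton X-100) in acetate buffer pH 5.5 with 5 mM DTT: enzyme at 1.5 nM final, 15 min compound preincubation at room temperature, then 2 uM Z-FR-AMC substrate. Activity taken as 60 s fluorescence increase at 360/450 nm.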
# SARS PLpro yeast – qHTS of Yeast-based Assay for SARS-CoV PLP; S. cerevisiae expressing SARS-CoV PLpro, growth rescue; control for the full effect not named in the record; Potency, µM (top dose mostly 32.9 µM), inactives show at the top dose activity, positive = growth rescue; actives 0.19% (n = 330,000); AID 485353, 2010; also: 0% is about no effect; nearly all actives have a fitted effect of over 55% in size; growth read by luminescence after 48 h
# RE007 growth inh – qHTS Assay for Inhibitors of the HIV-1 protein Vpr; S. pombe RE007 Vpr strain, BacTiter-Glo ATP luminescence, 24 h; control for the full effect not named in the record; Potency, µM (series often up to 92.2 µM), without a hit: at the highest dose activity change, negative = less growth; actives 0.21% (n = 360,000); active = well fitted falling curve with a large enough effect; inconclusive = small, poorly fitted or top-dose-only effect; inactive = no such curve, though single readings can be large or run the other way;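 also: % is scaled to controls: 0 for no effect and ±100 for the full control effect; nearly all actives have a fitted effect of over 50% in size; the assay follows cell death caused by Vpr and the record does not say whether a fall means rescue or toxicity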
#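 Fission yeast strain RE007, carrying one chromosomally integrated HIV-1 vpr copy, was seeded at OD 0.01 in PMG+AL medium with 23 nL pinned compound. After 24 h at 30 °C and 99% humidity, viability was read by BacTiter-Glo luminescence.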
# The depositor's hits bear a star; ? = inconclusive; . = no result given; & = joins results of further samples; [ ] = another dose, or the depositor's remark. Unless noted, calls follow the shape of the dose curve; as a rule, active means well fitted rising curve with a large enough effect; inconclusive means small, poorly fitted or top-dose-only effect; inactive means no such curve, though single readings can be large or run the other way. Potency is read from the fitted curve at half-maximal effect. Outcome played no part in choosing rows. About 4.8% of those tested had a hit in this group.
SMILES,Cruzain inh noDet,MARV entry inh,NS1 inh,2A StopGo,Lassa entry inh,Cruzain inh Det,SARS PLpro yeast,RE007 growth inh
O=c1ccc(-c2ccc(S(=O)(=O)NCc3cccc(Br)c3)s2)n[nH]1,.,.,-9%,0%,.,.,13%,-1%
CCOC(=O)c1[nH]c2ccc(Br)cc2c1NC(=O)CNC,?,5%&5%,6%,0%,-16%,-3.9%,5%,-11%
COc1ccc(C(=O)NC2CC(C)(C)Cc3c2cnn3-c2ccccc2C)c(OC)c1OC (stereo not drawn),.,?,5%,-12%,-15%,.,-3%,9%
NC(=O)C1=C[C@@H](C2CCCCC2)C[C@@H](OCCCCO)O1,.,.,5%,-25%,.,.,0%,9%
COc1cc2c(ccc3c4cc(OC)c(OC)cc4c[n+](C)c23)cc1O,.,?,.,10%,-25%,.,.,?
C=C(C)c1ccc(C(C)(C)NC(=O)N(Cc2ccccc2)Cc2ccco2)cc1,-26%,?,5%,-23%,?,-2.9%,2%,-1%
CN(C)c1oc(-c2ccc(Cl)cc2)nc1S(=O)(=O)c1ccccc1,0%,0%,-11%,0%,-11%,-5.8%,0%,-4%
COC(=O)c1cc2sc(Cl)cc2n1Cc1nc(-c2ccccc2F)oc1C,6%,0%[46.1 µM],.,-16%,.,-1.7%,.,.
CN1C(=O)C(CCC(N)=O)NC1=S (stereo not drawn),.,14%[14.2 µM],5%,-11%,8%,.,2%,-2%
CC(=O)Nc1ccc(NC(C)=C(C#N)C#N)cc1,4%,-4%,-3%,-21%,-15%,-2.2%,-25%,18%
Nn1cnnc1N/N=C/c1cc([N+](=O)[O-])c(Cl)cc1Cl,?,-8%,9%,-14%,?,?,0%,-13%
COc1ccc(-c2sc(Nc3ccccc3)n[n+]2-c2ccc(F)cc2)c(OC)c1OC,.,.,-15%,?,.,.,18%,-9%
CCOC(=O)c1cnc2c(C)cccc2c1Nc1ccc(OC(C)C)cc1,7%,1%[46.1 µM],.,-29%,20%[46.1 µM],-3.3%,.,.
Clc1ccc(C2C3=C(Nc4ncnn42)c2ccccc2CC3)cc1 (stereo not drawn),-5%,1%,-2%,.,.,-9.2%,15%[6.58 µM],.
COCCn1c(C)cc(C(=O)CSc2nnc(-c3cccnc3)n2-c2ccccc2F)c1C,8%,-3%&-19%,5%,-10%,-18%,-0.3%,-4%,-21%[3.69 µM]
O=C(COC(=O)/C=C/c1ccc(C(F)(F)F)cc1)NCC1CCCO1 (stereo not drawn),.,12%,.,7%,19%,.,2%,-1%
CNC(=O)CS(=O)(=O)CC(=O)Nc1cc(OCCOC)c(Cl)cc1Cl,.,-4%[46.1 µM],-1%,-11%,-29%,.,1%,-1%
CC1CCN(C(=O)CSc2nnc(CNc3ccc(F)cc3)n2Cc2ccco2)CC1,0%,-19%,2%,2%,-20%,0.5%,.,0%
Cc1ccccc1CN1CCN(C(=O)c2ccc(F)cc2)CC1,.,.,2%,-22%,.,.,5%,-1%
CC(=O)c1ccc(S(=O)(=O)Nc2ccc(-c3cn4c(C)csc4n3)cc2)cc1,25µM*,.,.,28%,-4%[46.1 µM],-3.5%,.,.
Cc1c(C(=O)NCc2ccccc2)sc2nc[nH]c(=O)c12,6%,.,.,-16%,7%[46.1 µM],-2.2%,.,.
CCn1nnc(NC(=O)c2ccccc2Br)n1,6%,6%,6%,33%[activator],21%,2.5%,-3%,2%
CC(C)(C)c1ccc(S(=O)(=O)Nc2ccc3c(c2)COC3=O)cc1,.,?,2%,26%,9%[46.1 µM],.,4%,2%
O=C(CCS(=O)(=O)c1cccs1)Nc1ccc(C(=O)NCc2ccc(F)cc2)cc1,-19%,?,-5%,-26%,-6%,-3.6%,12%,-5%
CC(=O)OCCC(C)C,-1%,.,.,-9%,.,3.9%,-1%,6%
O=C(Cn1nc(CNc2ccc(Cl)cc2)[n+]2c1CCCCC2)c1ccc(Cl)cc1,5%,12%,?,1%,4%,-2.0%,4%,5%
O=C(CN(CCc1ccccc1)S(=O)(=O)c1ccccc1)NCc1ccc(Cl)cc1,-7%,.,.,0%,?,-5.1%,.,.
N#CC1(c2ccccc2)CCC(NCCc2ccccc2)CC1 (stereo not drawn),.,.,2%,-6%,.,.,0%,-4%
COc1ccc(N2C(=O)NC(=O)C2=O)cc1,.,-11%[46.1 µM],14%,-12%,12%[46.1 µM],.,2%,0%
COc1ccc(C(=O)NC(C)c2ccc(-n3ccnc3)cc2)cc1S(=O)(=O)N1CCOCC1 (stereo not drawn),.,-9%,.,-4%,26%,.,-6%,-4%
O=c1c2cccnc2[nH]c(=S)n1CCC1=CCCCC1,?,5%,-5%,13%,-4%,6.2%,-5%,15%
O=C(c1ccc(Cl)c(S(=O)(=O)N2CCCCCC2)c1)N1CCCC1,.,1%,-4%,-2%,?,.,0%,-2%
C#CCOCCOCCOCCNc1nc(N2CCN(C(=O)Cn3cc(CCCN=C(N)N)nn3)CC2)nc(N2CCN(C(=O)[C@H]([C@@H](C)CC)n3cc(CCC(=O)O)nn3)CC2)n1,9%,6%,-1%,-11%,16%,-8.0%,1%,4%
Cc1ccc(S(=O)(=O)N2CCC[C@H]2C(=O)Nc2ccccc2C)cc1,.,?,.,-2%,-7%[46.1 µM],.,-7%,4%
COc1cc(Nc2nc3ccccc3nc2NS(=O)(=O)c2ccc([N+](=O)[O-])cc2)cc(OC)c1OC,.,19%[46.1 µM],-2%,-33%,?,.,-2%,19%
CC(=O)Nc1sc2c(c1C(c1ccccn1)N1CCN(C)CC1)CCCC2 (stereo not drawn),.,-15%[46.1 µM],.,-1%,-3%[46.1 µM],.,3%,1%
Cc1nc(-c2ccc(C(=O)Nc3cc(S(N)(=O)=O)ccc3C)cc2)cs1,.,.,29%,33%[activator],.,.,2%,15%
CC1=C(C(N)=O)C(c2ccccn2)n2nc(-c3ccccc3Cl)nc2N1 (stereo not drawn),2%,.,2%,-4%,.,-0.2%,0%,4%
C=CCN1C(=O)c2ccc(C(=O)NCCc3ccc(OC)c(OC)c3)cc2C1=O,.,7%,-4%,-24%,16%,.,-5%,1%
CCN(CC)c1sc(S(=O)(=O)c2ccccc2)nc1S(=O)(=O)c1ccc(C)cc1,12%,?,.,36%[activator],.,-4.1%,.,.
O=C(NCCOc1ccccc1)c1cc([N+](=O)[O-])ccc1N1CCOCC1,.,?,.,-7%,-19%,.,0%,-2%
Cc1ccccc1NC(=O)CN1CCC(n2nnc3ccccc32)CC1,5%,1%,-5%,-11%,20%,1.7%,4%,0%
Nc1ccc(Oc2ccc3c(c2)OCO3)cc1,.,-23%[46.1 µM],.,14%,?,.,-1%,2%
O=C(CCN1CCN(C(c2ccccc2)c2ccccc2)CC1)N/N=C/c1ccc(O)cc1,-4%,?,-1%,-22%,?,-0.9%,2%,14%
CCCSC1=C(C#N)C(c2cccs2)C(C(=O)Nc2ccccc2)=C(C)N1 (stereo not drawn),25µM*,?,-2%,-24%,?,-12%,-11%,-5%
COc1ccccc1N1CCN(C(=O)c2cccc(N3C(=O)NC4CC3(C)Oc3c(OC)cccc34)c2)CC1 (stereo not drawn),.,.,2%,-24%,.,.,0%,-9%
COC(=O)c1ccc(N2C(=O)C3C4C=CC(CC4)C3C2=O)cc1 (stereo not drawn),.,5%,-7%,8%,7%,.,0%,11%
COCCCn1c(C(=O)NCCC2=CCCCC2)cc2c(=O)n3cccc(C)c3nc21,.,.,1%,-12%,.,.,-4%,-6%
CCN(CC)Cc1c[nH]c2ccccc12,0%,-17%,-9%,?,-9%,1.0%,-26%,-5%
CNC(=S)N(Cc1ccc(OC)cc1)C1CC(=O)N(c2ccc(OC)cc2)C1=O (stereo not drawn),-2%,-14%[46.1 µM],11%,-25%,-27%,-4.2%,-16%,-8%
Cc1[nH]c2c(C)cccc2c1CCNC(=O)c1ccc2c(c1[N+](=O)[O-])C(=O)c1ccccc1C2=O,7.9µM*,?,-6%,-20%,?,2.7%,-2%,1%
COC(=O)c1cc(C(=O)OC)cc(N2C(=O)CC(NNC(=O)c3ccc(C)cc3)C2=O)c1 (stereo not drawn),2%,?,7.1µM*,7%,0.79µM*,-1.8%,14%,12%
Cc1cccc(CC(=O)NCc2nc3cccnc3n2Cc2ccc(F)cc2)c1,1%,.,.,-13%,-10%[46.1 µM],-0.4%,.,.
Cc1ccccc1NC(=O)Cc1nc(COC(=O)CNS(=O)(=O)c2cccc(Br)c2)cs1,.,-16%,3%,-4%,-1%,.,?,-22%
Fc1cccc(NC(=S)NCCN2CCOCC2)c1,3%,23%,11%,2%,5%,-1.0%,14%,.
CCOC(=O)CNC(=O)CSc1nc2cccnc2n1CC,0%,-1%,10%,2%,2%,-3.0%,6%,18%
O=C(CC1NCCNC1=O)OCc1ccccc1 (stereo not drawn),-6%,-24%[46.1 µM],8%,-1%,-2%,4.0%,0%,-5%
O=C(CSC1=Nc2ccccc2C2=NC(c3ccccc3)C(=O)N12)NCC1CCCO1 (stereo not drawn),-3%,-1%,?,60%[activator],-6%,-4.3%,-3%,-3%
COc1ccc(NC(=O)CN2CCC(n3c(C)nc4cc(F)ccc43)CC2)c(OC)c1,?,-6%&-6%,2%,1%,-5%,0.9%,10%,4%
O=C(CNC(=O)c1ccco1)OCC(=O)c1ccc(Br)cc1,.,2%[46.1 µM],4%,-1%,21%[46.1 µM],.,-1%,13%
CCn1c(SCC(=O)c2ccc(Cl)cc2)nnc1-c1ccoc1C,-17%,17%,-31%,-4%,1%,2.4%,?,-16%
Cn1ncc([N+](=O)[O-])c1C(=O)Nc1ccn(Cc2ccccc2F)n1,1%,3%,0%,-19%,-13%[14.3 µM],2.3%,-2%,3%
CNC(=S)NNC(=O)Cc1ccc(OC)cc1,.,18%,-7%,-11%,2%,.,0%,-8%
